PINK1 expr mod = PINK1 expression modulation. PINK1 immunofluorescence, high-content cytometry, 24 h. Potency, µM (titrated, usually from 76.6 µM), inactives show top-dose activation (PINK1 increase), usual class: activators. 0.2% of 410,000 active. AID 624263; active = well fitted activation curve with a large enough effect; inconclusive = small, poorly fitted or top-dose-only effect; inactive = flat fitted curve, though single readings scatter; cell line not stated here;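 note: potency is the fitted concentration of half-maximal effect; % of control where 0% means no effect; nearly all actives have a fitted effect of over 65% in size; a mitochondrial uncoupler was the plate control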
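Fluorescence from anti-PINK1 antibody, together with nuclear and cell stains, was scanned on a laser-scanning cytometer. Before staining, stable-line cells were incubated 24 hours with compounds at 5 concentrations; primary antibody 12 h at 10 degrees C.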
TRPML1 blocker = inhibitors of human TRPML1 channel. Q9GZU1. activity change, negative = inhibition, % (no concentration beside the values). 0.02% of 390,000 active. AID 624415. TRPML1-inducible cells, Ca2+ dye fluorescence, FDSS; stronger effect = lower value; inhibition of EC80 agonist-evoked calcium signal; in the data active means activity change below about -50%; inconclusive means about -30% to -50%; inactive means above about -30%;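 note: stimulus is agonist 54-4 at its EC80 concentration; % is set by controls: 0 for no effect and ±100 for the full control effect; compound concentration not given in the record; the text of the record puts the active cut at -80%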
Target sequence (Q9GZU1 whole entry, looked up): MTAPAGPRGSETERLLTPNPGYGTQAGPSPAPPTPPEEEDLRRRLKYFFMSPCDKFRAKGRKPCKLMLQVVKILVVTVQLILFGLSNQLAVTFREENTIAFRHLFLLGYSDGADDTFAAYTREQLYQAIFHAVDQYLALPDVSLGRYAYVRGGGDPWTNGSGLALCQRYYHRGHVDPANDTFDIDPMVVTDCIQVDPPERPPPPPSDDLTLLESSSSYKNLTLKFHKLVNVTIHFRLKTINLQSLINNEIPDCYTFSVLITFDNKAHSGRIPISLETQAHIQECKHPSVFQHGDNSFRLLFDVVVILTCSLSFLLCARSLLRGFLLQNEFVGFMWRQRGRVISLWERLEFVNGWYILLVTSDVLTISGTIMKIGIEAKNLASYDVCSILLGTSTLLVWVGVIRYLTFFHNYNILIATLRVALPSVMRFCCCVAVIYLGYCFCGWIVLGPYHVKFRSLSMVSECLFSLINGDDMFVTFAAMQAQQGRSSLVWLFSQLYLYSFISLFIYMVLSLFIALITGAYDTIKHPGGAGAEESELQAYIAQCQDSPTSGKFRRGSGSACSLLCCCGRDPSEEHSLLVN
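TRPML1-DL cells, Tet-induced overnight (~16 h, 37 °C) at 1,500 cells/well, were loaded with Ca8 no-wash dye plus quencher for 45-90 min at room temperature. Compounds were pinned during FDSS kinetic reading; agonist 54-4 at EC80 (4 uM final) then added.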
Six1-Eya2 blk = Six1/Eya2 interaction inhibition. AlphaScreen GST-Six1/His-Eya2 binding, biochemical; stronger effect = lower value; control for the full effect not named in the record. AID 651725. activity change, % (concentration not given with the values). 0.56% of 360,000 active. Q15475+O00167; in the data active = activity change below about -65%; inconclusive = about -30% to -65%; inactive = above about -30%; note: % is set by controls: 0 for no effect and ±100 for the full control effect
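Compounds are tested against tagged Six1 and Eya2 proteins bridged by glutathione donor and nickel acceptor beads; after a one-hour incubation at 37 °C without light, AlphaScreen emission is recorded.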
D2 potentiator = human D2 receptor positive allosteric modulation | potentiation, % (test concentration not listed) | DiscoveRx D2 beta-arrestin cells, luminescence, 90 min; 100% = 57 uM dopamine signal | 0.23% of 360,000 active; active = potentiation of 50% or more; inconclusive = 30% to 50%; inactive = 30% or less;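 note: compound concentration not given in the record; tested on top of an EC20 dose of dopamine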
Target sequence (P14416 whole entry, looked up): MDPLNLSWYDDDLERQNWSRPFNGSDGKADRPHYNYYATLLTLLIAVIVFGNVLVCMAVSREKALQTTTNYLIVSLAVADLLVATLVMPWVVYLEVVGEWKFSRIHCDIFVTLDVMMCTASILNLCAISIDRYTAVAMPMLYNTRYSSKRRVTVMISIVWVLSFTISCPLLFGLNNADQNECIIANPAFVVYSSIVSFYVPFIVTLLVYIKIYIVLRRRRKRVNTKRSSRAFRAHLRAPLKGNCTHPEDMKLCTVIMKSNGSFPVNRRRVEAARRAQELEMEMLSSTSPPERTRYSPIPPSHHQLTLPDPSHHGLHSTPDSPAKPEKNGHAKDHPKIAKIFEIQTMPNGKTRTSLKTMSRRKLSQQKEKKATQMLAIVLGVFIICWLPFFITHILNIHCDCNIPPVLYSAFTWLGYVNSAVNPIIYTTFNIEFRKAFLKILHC
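PathHunter D2 cells, attached overnight at 37 deg C, received compound in DMSO plus dopamine at EC20 (50 nM final) for 90 min at 37 deg C. Beta-arrestin recruitment was read as luminescence after 1 h with detection reagent at ambient temperature.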
TRPML1 ag = human mucolipin-1 channel agonism; AID 624414; 0.12% of 410,000 active; activation, % (test concentration not listed); TRPML1-expressing cells, Ca2+ dye fluorescence, FDSS; host cell line not named in the record; reference of the full effect not given here; in the data active = activation above about 50%; inconclusive = about 30% to 50%; inactive = below about 30%; note: 0% is about no effect; the text of the record puts the active cut at 80%
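Calcium fluorescence on an FDSS kinetic reader gave the read-out. Tet-induced TRPML1-DL cells were plated overnight, dye-loaded (Ca8 with quencher, 45-90 min, room temperature, dark), then read 110 s after compound addition, and again 110 s after 4uM final 54-4 (EC80).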
D2 agonist = human D2 receptor agonism in beta-arrestin assay; P14416; activation, % (test concentration not listed); DiscoveRx PathHunter D2 beta-arrestin, luminescence, 90 min; 100% = 57 uM dopamine signal; 0.084% of 360,000 active; in the data active = activation above about 40%; inconclusive = about 15% to 40%; inactive = below about 15%; note: compound concentration not given in the record; the text of the record calls up to 30% inactive
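Agonist mode: compounds alone added to overnight-plated D2 PathHunter cells for 90 min at 37 C, with 57 uM final dopamine (EC100) defining full response. Beta-arrestin recruitment detected by chemiluminescent reagent, read after 1 h at ambient temperature.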
Starred values were filed as active, the others as inactive; ? = inconclusive; nt = not tested or not shown; [ ] = another dose, or the depositor's remark. Not a hit list. Share with any hit: about 1%.

Second line of a record – PINK1 expr mod	TRPML1 blocker	Six1-Eya2 blk	D2 potentiator	TRPML1 ag	D2 agonist
Cc1cccc(NC(=O)Cn2cnc3c(oc4ccccc43)c2=O)c1
→ 2.9%	-11.3	-6.9	-8.1	0.1	6.6
COc1cc(C2Nc3ccccc3C(=O)N2c2ccccc2OC)ccc1O (configuration not stated)
→ -1.5%	-0.8	7.7	-14.6	-1.1	-3.1
COC(=O)[C@@]1(Cc2ccc(F)cc2)[C@H]2c3cc(C(=O)N(C)C)n(Cc4ccc(OC)c(OC)c4)c3C[C@H]2CN1C(=O)c1ccccc1
→ -0.1%	-9.3	-13.3	-4.7	2.3	-1.6
Cc1ccc(Cn2ccc(NC(=O)c3cc(C)on3)n2)cc1
→ -0.3%	3.6	1.8	5.5	-0.8	-2.7
COc1ccc(-c2sc(Nc3ccc(F)c(F)c3F)nc2CCC(=O)NN)cc1
→ -1.6%	16.9	-1.7	0.4	0.3	-5.7
COc1ccc(S(=O)(=O)N2CCN(CCC(=O)Nc3ccccc3F)CC2)cc1
→ nt	2.0	2.4	-20.8	0.2	-1.6
O=C(CN1C(=O)NC2(CCOc3ccccc32)C1=O)Nc1ccc2c(c1)OCCO2 (configuration not stated)
→ 0.4%	11.2	-0.5	5.0	-0.6	-1.9
CC(=O)c1cccc(-c2ccnc3c2CC(C(=O)NCc2ccc(F)c(F)c2)O3)c1 (configuration not stated)
→ 3.4%	nt	-2.4	-16.6	-0.9	6.3
Cc1cc(C(=O)COC(=O)c2ccc3c(c2)NC(=O)CS3)c(C)n1CC1CCCO1 (configuration not stated)
→ 0.2%	-2.0	-15.6	2.4	-0.1	-0.9
COc1ccc(-n2c(C)c(C(C)=O)c3cc(OC(=O)COc4ccccc4)ccc32)cc1
→ -4.3%	17.5	nt	nt	2.1	nt
N#Cc1ccccc1NC(=O)c1cnc(N2CCOCC2)c2ccccc12
→ -0.2%	21.2	nt	nt	-0.5	nt
CC(C)=Cc1oc2ccc([N+](=O)[O-])cc2c1N1CC(C)OC(C)C1 (configuration not stated)
→ 4.6%	12.9	-4.5	-1.9	-0.5	-4.8
O=C(Cc1cccs1)NCc1cccc(Cl)c1
→ -2.4%	16.9	2.0	-4.8	0.7	0.6
O=[N+]([O-])c1ccc(Cl)c(NC(=S)N2CCCC2)c1
→ 3.3%	-22.7	-1.8	-5.3	-0.5	-2.9
Cc1ccc2c(c1)C(=O)OC(C(=O)Nc1ncc(Cc3ccccc3)s1)C2 (configuration not stated)
→ -1.1%	6.3	nt	nt	1.0	nt
COc1ccc(C(=O)OCC(=O)Nc2cccc(C(C)=O)c2)cc1OC
→ 0.3%	-1.2	-1.5	-1.3	-0.2	1.6
COc1cc(OC)c(C=NNC(=S)NC23CC4CC(CC(C4)C2)C3)c(OC)c1
→ 0.6%	9.2	-21.0	-14.2	1.6	-2.5
O=C(NCCOc1ccccc1)c1cc2ccccc2o1
→ 0.5%	-8.6	3.0	-23.3	-0.9	-3.0
CCCC(=O)Nc1ccccc1-c1nnc(SC)[nH]c1=O
→ 0.5%	-0.3	3.2	-7.0	-0.2	7.9
O=C(CN1N=C(c2ccc(Cl)cc2)CCC1=O)NCCN1CCc2ccccc2C1
→ -0.3%	13.5	-7.6	-28.2	0.6	-1.2
CCOc1ccc(N2C(=O)CN(CC(=O)OC)C2=S)cc1
→ 3.9%	-11.9	11.0	-0.9	-0.7	2.0
O[C@@H]1CN(CC2CCCCC2)[C@@H](c2ccccc2)C[C@H]1n1cc(C2CC2)nn1
→ 13.5%	nt	-0.5	nt	nt	-2.2
Cc1ccc(OCCC(=O)OCC(=O)Nc2ccc3c(c2)OCO3)cc1
→ 0.5%	-15.4	-6.1	-66.6	0.8	-0.8
Cc1ccc(-c2nc(CS(=O)CC(=O)NC3CCCCC3)c(C)o2)cc1 (configuration not stated)
→ 0.5%	14.6	-5.4	-5.3	-1.2	-3.4
COc1cc(OC)cc(C(=O)NNC(=O)c2ccc(S(=O)(=O)N(C)c3ccccc3OC)cc2)c1
→ 3.1%	0.6	-1.7	-6.9	0.1	0.0
Cc1c(N=C2NC(=O)C(CC(=O)Nc3ccccc3)S2)c(=O)n(-c2ccccc2)n1C (configuration not stated)
→ -1.9%	-2.0	-2.5	26.0	-0.5	-1.3
Cc1ccc(Cl)cc1NC(=S)N(Cc1cccs1)C1CCCC1
→ -1.0%	4.3	-1.8	-6.5	-0.4	-7.4
C/C(=N\Nc1nc2ccccc2[nH]1)c1ccc([N+](=O)[O-])cc1
→ 3.8%	7.0	40.1	0.3	1.1	4.7
CN(CC(=O)Nc1ccc(N2CCOCC2)cc1)C(=O)Cc1ccccc1
→ 1.1%	10.6	-0.2	-5.7	-0.1	2.8
COc1ccc(-c2cc(-c3nnc(COC(=O)CC4CCCC4)o3)c3ccccc3n2)cc1OC
→ 2.2%	6.6	2.1	2.6	3.2	1.4
CN(C)Cc1nc2ccccc2c(=O)n1CC(=O)Nc1cccc(S(=O)(=O)N2CCOCC2)c1
→ -0.5%	3.3	0.3	-4.8	0.6	-0.2
O=C(NC(=S)Nc1ccccc1N1CCOCC1)c1ccco1
→ 1.3%	-6.2	-7.0	0.2	-1.0	-7.3
CCOc1ccc(NC(=O)Cc2coc3ccc(C)cc23)cc1
→ 3.5%	-12.0	nt	nt	2.6	nt
CCOC(=O)c1ccc(OCc2c(C)noc2C)cc1
→ -0.9%	0.3	-0.9	12.2	-0.8	-2.4
Cc1ccccc1Cn1c(SCc2ccc(C(=O)N3CCCCC3)cc2)nc2ccncc21
→ 0.6%	0.5	nt	nt	1.0	nt
CN1C(=O)NC(c2ccc(Cl)cc2)C2=C1CC(C)(C)CC2=O (configuration not stated)
→ -1.1%	8.8	2.4	-4.5	-1.1	-2.1
CN(Cc1ccccc1)C(=O)Cn1nc(C(F)(F)F)c2c1CCC2
→ 0.2%	6.8	7.5	-4.3	1.7	-2.6
Cc1cc(Nc2ccccc2Cl)c2ccccc2n1
→ 1.7%	49.1	-11.6	-18.4	0.6	-2.8
CC(C)(C)n1cnc2cc(NCc3cccs3)ccc21
→ 0.9%	-5.7	-6.0	-13.1	0.0	0.2
CCNS(=O)(=O)c1ccc(OC)c(C)c1
→ -2.5%[38.3 µM]	1.8	3.8	-11.7	-0.4	-2.5
CCn1c2ccccc2c2cc(NC(=O)CNC)ccc21
→ 7.8%	16.0	-10.4	-9.8	-1.1	-2.9
CC1(C)c2cc(O)ccc2OC1N1CCOCC1 (configuration not stated)
→ -1.1%	-2.7	-1.1	-4.4	3.2	8.7
O=C(Nc1cccc(Cl)c1)c1cnccn1
→ -0.6%	-0.2	0.7	-9.2	0.5	5.8
CC(C)(CNC(=O)CCNC(=O)c1ccc(Br)cc1)N1CCOCC1
→ 2.4%	-8.3	-4.3	-18.4	0.1	-2.2
CCn1c(C)cc(C(=O)CSc2nnnn2C2CCCC2)c1C
→ 4.5%	2.6	-16.2	-15.7	-0.7	-1.5
COc1ccccc1NC(=O)C1=C(C)Nc2nc3ccccc3n2C1c1cccs1 (configuration not stated)
→ ?	-10.2	-0.1	14.4	-0.2	2.0
CCOc1c(Nc2cccc(Cl)c2)c(=O)c1=O
→ 4.8%	4.8	-16.9	-7.9	4.3	0.3
CCCCC(=O)Nc1ccc(C(=O)N2CCN(C)CC2)cc1
→ -0.3%	5.5	9.1	-8.6	0.7	-1.3
Cc1cccc(N(CC(=O)N2CCOCC2)S(C)(=O)=O)c1
→ 5.1%[38.3 µM]	4.5	4.8	1.3	0.3	0.4
CCOc1cc(/C=N/NC(=O)c2ccncc2)cc(Br)c1O
→ -0.1%	12.4	-4.1	-12.4	-0.2	-3.6
COC(=O)[C@@H](NC(=O)CCc1nnc(-c2ccsc2)o1)C(C)C
→ -1.0%	2.0	5.0	-8.8	-0.1	0.7
CCOC(=O)C1CCN(c2nc3ccccc3nc2C(C#N)C(=O)OCCOC)CC1 (configuration not stated)
→ -0.5%	16.2	-3.5	-12.0	0.7	-2.4
CN1CCN(C(=O)C2CCCN(S(=O)(=O)c3ccc(Cl)cc3)C2)CC1 (configuration not stated)
→ 0.5%	-7.2	-1.9	-7.5	0.3	-0.2
CCN(CC)CCn1c2c(c(SCC(=O)NCc3ccccc3)nc1=O)CCCC2
→ 0.0%	11.4	-9.0	-7.7	0.0	-4.0
COc1ccc(Cl)cc1NC(=O)CSc1nc(=O)[nH]c2c1CCC2
→ 0.4%	20.6	nt	nt	0.5	nt
O=C1C=C(O)CC(c2cccs2)C1 (configuration not stated)
→ 4.1%[38.3 µM]	-2.5	-0.1	-10.3	-0.3	-3.3
CCCS/C(N)=N/N=C/c1ccccc1O
→ 2.2%	-1.7	-8.2	4.0	-1.4	-0.6
COc1ccc(NC(=O)C(NC(=O)c2ccc(=O)[nH]c2)c2ccccc2)cc1 (configuration not stated)
→ -0.1%	-3.8	13.1	-13.7	0.5	-0.6
CCOc1ccccc1N1CN(CC)CNC1=S
→ -0.6%	-3.7	7.2	-1.8	0.0	-3.9
COc1ccc(/C=C/C(=O)OCC(=O)NC2CCCC(C)C2C)cc1S(=O)(=O)N1CCOCC1 (configuration not stated)
→ 1.4%	-5.2	3.0	-8.4	0.2	0.6

(next part)
Second line of a record – PINK1 expr mod	TRPML1 blocker	Six1-Eya2 blk	D2 potentiator	TRPML1 ag	D2 agonist
O=C(COC(=O)CC1CCCC1)Nc1ccc(Br)cc1F
→ 2.7%	6.1	9.9	-1.6	-0.8	4.0
CCCS(=O)(=O)NC(=O)C1(C)CCCN(C(=O)c2ccc3ccccc3n2)C1 (configuration not stated)
→ 0.1%	nt	2.1	-1.0	-0.7	-5.0
Cc1ccc(NC(=O)c2cc(-n3cnnc3)ccc2Cl)c(C)c1
→ -0.2%	7.4	-7.0	-4.2	-0.2	-1.8
O=C1OCCC1Sc1nnc(-c2ccco2)o1 (configuration not stated)
→ -1.3%	-8.6	10.3	-0.7	-0.7	-1.7
NC(=O)c1oc2ccccc2c1NC(=O)c1nc2ccccc2s1
→ 11.1%	14.6	-15.9	-9.9	-0.9	-3.7
Cc1nc2sc(C)c(C)c2c(=O)o1
→ 0.3%	-4.1	0.0	-1.6	-0.2	-4.0
O=[N+]([O-])c1ccc(/C=N/Nc2nc(N3CCCCC3)nc(N3CCCCC3)n2)o1
→ 1.7%	-6.9	-12.2	11.0	0.8	0.1
C/C(=C\C1CCCCC1)C(NC(=O)c1ccc(C(F)(F)F)cc1)c1ccc(-c2ccccc2)cc1 (configuration not stated)
→ 1.2%	5.9	1.8	-3.1	0.9	-4.0
COc1cc(OC)c2c(-c3cccc(-c4ccc(O)cc4)c3)cc(=O)oc2c1
→ ?	-0.5	-5.8	-1.3	0.9	-1.5
CC=CCn1c(SCCCc2ccccc2)nc2c1c(=O)[nH]c(=O)n2C
→ 3.9%	-3.3	-13.3	1.3	0.9	-7.1
C[C@H](CO)N1C[C@H](C)[C@H](CN(C)C(=O)c2ccncc2)OCc2ccccc2-c2c(n(C)c3ccccc23)C1=O
→ 1.5%	-7.5	6.7	3.6	-0.3	-9.5
CCOc1ccc(C(=O)c2oc3ccccc3c2NC(=O)c2cc(-c3ccccc3)on2)cc1
→ -1.2%	5.9	nt	nt	0.1	nt
